A647 autofl: compound autofluorescence in A647 spectral region; Compound fluorescence, A647 channel (570/671 nm), Tris buffer; max dye-equivalent concentration, M; 59,000 tested, under 10 active; active means above 1 µM dye equivalent; inconclusive means 0.1 to 1 µM; inactive means 0.1 µM or less;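 also: values scaled relative to a standard on each plate; highest value over a series up to 38 µM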
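Spectral profiling of library compounds in pH 8.0 Tris: 15 min room-temperature incubation, single ex/em pair (570/671 nm), response normalized to Alexa 647 equivalents.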
A488 autofl: compound autofluorescence in A488 spectral region. compound autofluorescence, A488 spectral region, dye equivalency; stronger effect = higher value. max dye equivalency, M. hit rate 0.1% among 59,000; active = above 10 nM dye equivalent; inconclusive = 1 to 10 nM; inactive = 1 nM or less; about half of its hits are not listed in these tables;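 also: highest value over a series up to 38 µM; compound alone in buffer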
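Autofluorescence read at ex 480/em 540 nm after 15 min RT in 100 mM Tris pH 8.0; compound signal normalized to A488 standard series on each plate, reported as dye-equivalent concentration at each test concentration.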
Resorufin autofl: compound fluoresces in the resorufin spectral region | Compound fluorescence, resorufin region 547/598 nm, buffer; stronger effect = higher value | max dye-equivalent concentration, M | hit rate 0.04% among 59,000 | AID 588; active = above 10 nM dye equivalent; inconclusive = 1 to 10 nM; inactive = 1 nM or less; a few of its hits are not listed in these tables; also: highest value over a series up to 38 µM
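Compounds in 100 mM Tris, pH 8.0, incubated 15 min at room temperature, then fluorescence read at 547 nm excitation/598 nm emission. Signal converted to dye-equivalent concentration via an on-plate six-point resorufin standard curve, per compound concentration.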
AID923: qHTS Assay for Allosteric/Competitive Inhibitors of Caspase-1: Spectroscopic Profiling in AFC Spectral Region | compound fluorescence, AFC spectral region (405/520 nm); almost no hit is shown here | Potency, µM (series often up to 57.5 µM), inactives show top-dose fluorescence increase, most hits filed as activators | hit rate 1.1% among 75,000 | AID 923, 2007; active = well fitted activation curve with a large enough effect; inconclusive = small, poorly fitted or top-dose-only effect;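 also: potency is read from the fitted curve at half-maximal effect; 0% is about no effect; scaled to a free AFC standard on each plate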
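Compound autofluorescence profiled at 405 nm ex/520 nm em during kinetic caspase 1 run (50 nM enzyme, 5 uM Ac-WEHD-AFC, HEPES pH 7.5, 10 mM DTT). Titration up to 57 uM; baseline from regression intercept, normalized to AFC standard curve.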
TSHR ag: activates the human thyroid stimulating hormone receptor | hit rate 0.48% among 73,000 | HEK293-CNG-TSHR cells (CNG channel as cAMP sensor), membrane potential dye, cAMP | Potency, µM (highest dose often 57.1 µM), for the others: at the top dose activation, usual class: activators | AID 926; active = well fitted activation curve of enough size with the parental cells flat; inconclusive = any curve in the parental cells; inactive = parental cells flat and receptor cells flat or falling; also: potency is read from the fitted curve at half-maximal effect; % of control where 0% means no effect; weak receptor curves with flat parental cells got no call and are not listed
Target sequence (P16473 whole entry, looked up): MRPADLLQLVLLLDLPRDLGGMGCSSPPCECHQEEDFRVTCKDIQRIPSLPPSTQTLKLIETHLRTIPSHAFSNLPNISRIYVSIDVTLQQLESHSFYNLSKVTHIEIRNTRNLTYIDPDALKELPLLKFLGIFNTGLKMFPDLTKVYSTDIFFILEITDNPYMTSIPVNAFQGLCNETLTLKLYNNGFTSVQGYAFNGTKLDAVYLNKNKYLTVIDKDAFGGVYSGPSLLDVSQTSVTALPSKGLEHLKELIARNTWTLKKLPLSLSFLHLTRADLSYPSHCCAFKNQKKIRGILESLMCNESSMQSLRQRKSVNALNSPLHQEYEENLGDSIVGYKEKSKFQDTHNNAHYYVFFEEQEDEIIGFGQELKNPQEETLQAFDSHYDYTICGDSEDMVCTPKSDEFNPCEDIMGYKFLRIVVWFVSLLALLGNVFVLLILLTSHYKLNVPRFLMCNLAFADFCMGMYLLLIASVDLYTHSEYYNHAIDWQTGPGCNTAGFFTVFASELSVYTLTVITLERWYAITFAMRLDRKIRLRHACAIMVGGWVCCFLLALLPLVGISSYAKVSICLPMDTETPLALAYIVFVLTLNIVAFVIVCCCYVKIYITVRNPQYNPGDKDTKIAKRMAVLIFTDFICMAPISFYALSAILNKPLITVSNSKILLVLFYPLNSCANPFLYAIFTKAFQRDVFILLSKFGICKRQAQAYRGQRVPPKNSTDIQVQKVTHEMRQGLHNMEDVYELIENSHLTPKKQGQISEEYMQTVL
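cAMP rise detected as CNG-channel membrane depolarization by fluorescent dye (emission 590 nm), 30 min after compound, following 60 min dye loading containing 100 uM RO 20-1724 at room temperature. Cells: TSHR/CNG HEK 293, with parental CNG HEK 293 as control.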
An asterisk follows results filed as active; i = inactive; ? = inconclusive; nt = no result given; & = joins results of further samples; [ ] = dose if it differs, or a comment. Not all compounds are listed. The share of hits here may be higher or lower than overall.

SMILES | A647 autofl | A488 autofl | Resorufin autofl | AID923 | TSHR ag
CCOC(=O)c1nn(-c2ccc(OC)cc2)c(=O)c2c(NC(=O)c3ccco3)scc12 | 1e-09 | i | i | -0.5% | 7%
CC(=O)Nc1ccc(NC(=O)CN(C)CCC#N)cc1 | nt | nt | nt | 4.2% | 6%
O=C(c1cnsn1)N1CCN(c2ccccn2)CC1 | 1e-09 | i | i | -0.4% | 0%
CC1=C(C#N)c2nc(N)c(C#N)c(C)c2/C1=C\c1ccccc1 | 2.8e-08 | i | i | -1.5% | -90%[inhibitor]
c1cc2c(nn1)CCc1nonc1-2 | 4.5e-08 | i | i | 1.4% | -22%
CCCCC(=O)N=c1sc2cc(S(C)(=O)=O)ccc2n1C | 1e-09 | i | i | -0.1% | ?
Cc1ccc2c(c1)N(CC(=O)NCC1COc3ccccc3O1)C(=O)CO2 (stereo not drawn) | nt | nt | nt | 0.6% | ?
NC(=O)c1ccccc1NC(=O)CS(=O)(=O)Cc1ccccc1 | 2.3e-08 | i | i | -0.5% | 5%
CCCCCCOc1ccc(/C(N)=N/O)cc1 | 4.2e-08 | i | i | -0.7% | 25%
CCOC(=O)c1c(C)n(C)c2c(C)cc(O)c(OC(C)=O)c12 | nt | nt | nt | 1.3% | -8%
Cn1c(=O)c(=O)n(C)c2cc(S(=O)(=O)N3CCOCC3)ccc21 | 1e-09 | i | i | -0.5% | -10%
CCOC(=O)c1cnc(SCC)[nH]c1=O | 1e-09 | i | i | 0.2% | 6%
CC(C)Cn1c(N)c(C(=O)CSc2ccc3c(c2)OCCO3)c(=O)n(C)c1=O | 2e-08 | i | i | -2.1% | ?
CSc1nncc(-c2ccc(F)c(F)c2)n1 | 7.9e-09 | i | i | 0.7% | -2%
O=C(Cc1cccs1)NCc1ccccc1F | 2e-08 | i | i | 0.0% | -8%
Cn1ncc(C#N)c1NC(=O)C1CC(c2c(F)cccc2Cl)=NO1 (stereo not drawn) | 4e-08 | i | i | 0.3% | ?
COc1ccc2c(c1OC)C(=O)OC2[C@H]1c2c(cc3c(c2OC)OCO3)CCN1C (stereo partly drawn) | 1e-09&5e-09&8e-09&5.5e-08 | i | i | 8.2%[25.7 µM] | 12%
NC[C@H]1O[C@H](n2cnc3c(N)ncnc32)C[C@@H]1O | 1.6e-08 | i | i | -3.7%[11.5 µM] | -4%[11.4 µM]
CN(Cc1ccccc1)C(=O)CSc1nc2ccccc2c(=O)n1Cc1ccco1 | 1.8e-08 | i | i | 0.6% | ?
CCOC(=O)C1=C(C)NC(=O)NC1c1ccccc1Cl (stereo not drawn) | 4.2e-08 | i | i | -1.3% | nt
COc1ccccc1/C=C/CN1CCOCC1 | 1e-09 | i | i | 2.6% | nt
Cn1c(=O)c2c(nc(N3CCc4ccccc4C3)n2Cc2ccc(Br)cc2)n(C)c1=O | 5.7e-09 | i | i | 0.9% | ?
COc1ccc(S(=O)(=O)N2CCCC2C(=O)Nc2ccc(C)cc2)cc1 (stereo not drawn) | 5.2e-09 | i | i | 0.3% | 2%
c1cncc(-c2nnc(-c3cccs3)o2)c1 | 1e-09 | i | i | 0.3% | 2%
C=C(NC(=O)C(=C)NC(=O)c1csc(C2=N[C@@H]3c4csc(n4)[C@@H]4NC(=O)c5csc(n5)[C@@H]([C@](C)(O)[C@H](C)O)NC(=O)[C@@H]5CSC(=N5)/C(=C/C)NC(=O)[C@@H]([C@H](C)O)NC(=O)c5csc(n5)[C@]3(CC2)NC(=O)[C@@H](C)NC(=O)C(=C)NC(=O)[C@@H](C)NC(=O)[C@@H]([C@@H](C)CC)N[C@H]2C=Cc3c([C@H](C)O)cc(nc3[C@@H]2O)C(=O)O[C@H]4C)n1)C(N)=O | 1e-09 | i | i | 0.2%[25.7 µM] | -12%[25.6 µM]
Cc1ccc(-c2[nH]nc3c2C(c2ccoc2)C(C#N)=C(N)O3)cc1C (stereo not drawn) | 1e-09 | i | i | -2.1% | ?
COc1ccccc1-c1nnc(NC(C)=O)s1 | 1e-09 | i | i | -0.9% | 1%
O=C(c1ccco1)N1CCC2(CC1)CCN(c1ccncc1)CC2 | 2.2e-08 | i | i | 0.6% | -1%
COCCNc1ccnc(-c2c(C)noc2C)n1 | 1e-09 | i | i | 1.6% | 0%
N#CCCN1CCN(C2=NC(=O)C(=C3CCCCC3)S2)CC1 | 1e-09 | i | i | 0.2% | -2%
CCOc1ccccc1-n1cnc2cc(C(=O)NCc3ccco3)ccc21 | 2.7e-08 | i | i | 1.5% | -3%[11.4 µM]
Nc1cc(N)nc(SCC(=O)N2CCCCC2)n1 | 3.4e-08 | i | i | 1.0% | -1%
CN(C)CCn1c(C(=O)O)cc2ccccc21 | 1e-09 | i | i | 0.7% | 5%
COC(=O)C/C=C\[C@@H](C)[C@@H](/C=N\O[C@@H](C)CN1CCCCc2nc(C)c(C)cc21)NS(=O)(=O)c1ccc(C)cc1 | nt | nt | nt | -3.0%[11.5 µM] | ?
CCc1nnc(NC(=O)CN2C(=O)c3ccccc3C2=O)s1 | 1e-09 | i | i | 0.6% | 4%
Cn1c(C(=O)N2CCc3ccccc32)cc2c(=O)n3ccccc3nc21 | 1e-09 | i | i | 13% | 4%
O=C(Nc1nncs1)c1ccc(S(=O)(=O)c2ccccc2)cc1 | 3.3e-08 | i | i | 0.9% | 2%
O=C(c1ccco1)N1CCN(c2ncnc3c2[nH]c2ccccc23)CC1 | 3.6e-08 | i | i | nt | nt
CCCn1c(SCC(=O)N2CCN(S(=O)(=O)c3ccc(Cl)cc3)CC2)n[nH]c1=O | 1.8e-08 | i | i | 0.3% | 3%
O=C1CCCc2nc(N3CCN(C(c4ccccc4)c4ccccc4)CC3)ncc21 | 3.1e-09 | i | i | 0.8% | nt

Overlap with the part before: 2 compounds, then new ones.
SMILES | A647 autofl | A488 autofl | Resorufin autofl | AID923 | TSHR ag
CCCn1c(SCC(=O)N2CCN(S(=O)(=O)c3ccc(Cl)cc3)CC2)n[nH]c1=O | 1.8e-08 | i | i | 0.3% | 3%
O=C1CCCc2nc(N3CCN(C(c4ccccc4)c4ccccc4)CC3)ncc21 | 3.1e-09 | i | i | 0.8% | nt
O=C(COc1ncnc2ccccc12)NC1CCS(=O)(=O)C1 (stereo not drawn) | 1e-09 | i | i | -3.2% | -5%
COCCNC(=O)C1(CC(C)C)C=CCN1C(=O)OC (stereo not drawn) | nt | nt | nt | 0.5% | ?
CC1=CC(=O)CC(C)(C)[C@@]1(O)/C=C\C(C)=C\C(=O)O | 1.9e-08 | i | i | nt | 3%
CCN1CCCC1CNC(=O)C1c2ccccc2C(=O)N(CCOC)C1c1ccc(F)cc1 (stereo not drawn) | 1e-09 | i | i | -0.6% | 0%
COCCn1nnnc1C(c1cc2cc(OC)ccc2[nH]c1=O)N1CCC(Cc2ccccc2)CC1 (stereo not drawn) | 6.8e-08 | i | i | 0.9% | 29%
O=C(c1cc2ccccc2o1)c1nc2c(n1O)CCCCC2 | 9.5e-09 | i | i | -1.4% | nt
Cc1nnc(SCCCN2C(=O)c3ccccc3C2=O)o1 | 6.7e-08 | i | i | -0.6% | ?
CSC1=NCCN1C(=O)Cc1cccs1 | nt | nt | nt | 2.1% | 1%
CN1C(=O)CSc2ccc(NC(=O)NCc3cccnc3)cc21 | 4e-08 | i | i | -0.2% | -10%
COc1ccc(N(CC(=O)NCc2ccco2)S(=O)(=O)c2c(C)nn(C)c2C)cc1 | nt | nt | nt | 1.4% | 2%
CN(C)CCCN1C(=O)c2oc3ccccc3c(=O)c2C1c1cccs1 (stereo not drawn) | 4.3e-09 | i | i | 7.9% | 4%
O=c1c2ccccc2c2ccccc2c(=O)n1Cc1ccco1 | 8.2e-09 | i | i | -0.9% | nt
O=C(NCCO)C1(c2ccccc2)CCCC1 | 4.4e-08 | i | i | nt | nt
Cn1c(=O)n(Cc2ccccc2)c(=O)c2c1nc(NCC1CCCO1)n2Cc1ccccc1 (stereo not drawn) | 2.6e-09 | i | i | nt | nt
CN(CCCNC(=O)C1CCN(S(=O)(=O)N2CCC3(CC2)OCCO3)CC1)Cc1ccccc1 | 2.7e-08 | i | i | 0.0% | ?
C=C(C)C1CCC(C)=C1CC(C)(C)/C=N\n1cnnc1 (stereo not drawn) | nt | nt | nt | -0.7% | ?
COC(=O)c1cc2oc(C)cc2n1CC(=O)Nc1cc(C)cc(C)c1 | 2.9e-09 | i | i | 1.7% | nt
O=C(O)[C@H]1C[C@@H](CP(=O)(O)O)CCN1 | nt | nt | nt | -2.8% | 6%
COc1ccc(Cc2nc(-c3ccc(-n4cccc4)cc3)no2)cc1OC | nt | nt | nt | 4.4% | ?
CCOc1ccc(C2/C(=C(/O)c3ccccc3)C(=O)C(=O)N2CCCN(C)C)cc1OC (stereo not drawn) | 1e-09 | i | i | -0.9% | -3%

Pulled by structure from above (five):
SMILES | A647 autofl | A488 autofl | Resorufin autofl | AID923 | TSHR ag
C=C(C)C1CCC(C)=C1CC(C)(C)/C=N\n1cnnc1 (stereo not drawn) | nt | nt | nt | -0.7% | ?
CCOc1ccc(C2/C(=C(/O)c3ccccc3)C(=O)C(=O)N2CCCN(C)C)cc1OC (stereo not drawn) | 1e-09 | i | i | -0.9% | -3%
O=c1c2ccccc2c2ccccc2c(=O)n1Cc1ccco1 | 8.2e-09 | i | i | -0.9% | nt
COC(=O)c1cc2oc(C)cc2n1CC(=O)Nc1cc(C)cc(C)c1 | 2.9e-09 | i | i | 1.7% | nt
COc1ccc(Cc2nc(-c3ccc(-n4cccc4)cc3)no2)cc1OC | nt | nt | nt | 4.4% | ?

Going on with the list.
SMILES | A647 autofl | A488 autofl | Resorufin autofl | AID923 | TSHR ag
O=C(Cc1cccs1)NCc1ccco1 | 1.5e-09 | i | i | -1.8% | 21%
Cc1cc(=O)[nH]c(N2CCCC2)n1 | nt | nt | nt | 1.4% | -11%
O=C1CCC(C(=O)OCc2cc(Cl)ccc2OC(F)F)N1 (stereo not drawn) | 1.2e-08 | i | i | 0.3% | ?
COc1ccccc1CN1CCC2(CC1)CCN(C(=O)c1ccco1)CC2 | 1e-09 | i | i | 1.4% | 5%
Cc1cc(-c2nc3ncccc3o2)ccc1NC(=O)CC(C)C | nt | nt | nt | -3.7% | 4%
O=C1c2ccccc2C(Nc2ccc3nc(-c4cccnc4)[nH]c3c2)N1Cc1ccco1 (stereo not drawn) | nt | nt | nt | 5.8% | -1%
O=C(Nc1ccccc1)N(C1=NCCC1)c1ccc(OC(F)F)cc1 | 1e-09 | i | i | 1.1% | ?
O=S(=O)(Nc1nc2ccccc2nc1NCc1ccco1)c1cccs1 | 1.7e-08 | i | i | 4.1% | 24%
Clc1ss/c(=N\c2ccccn2)c1Cl | 1.1e-09 | i | i | 0.3% | 3%
O=C(O)CC(C(=O)N(c1ccccc1)c1ccccc1)N1CCOCC1 (stereo not drawn) | 1e-09 | i | i | nt | nt

Record cards, as listed above. Order of screens: A647 autofl | A488 autofl | Resorufin autofl | AID923 | TSHR ag
O=C(c1cnsn1)N1CCN(c2ccccn2)CC1 is listed as 1e-09 | i | i | -0.4% | 0%
CCCCC(=O)N=c1sc2cc(S(C)(=O)=O)ccc2n1C is listed as 1e-09 | i | i | -0.1% | ?

More entries
SMILES | A647 autofl | A488 autofl | Resorufin autofl | AID923 | TSHR ag
COc1ccccc1C(c1nnnn1C(C)(C)C)N1CCN(Cc2ccncc2)CC1 (stereo not drawn) | 1.5e-08 | i | i | -1.2% | ?
CCN1CCN(C(c2cccs2)C(C)NS(=O)(=O)c2ccc(F)cc2)CC1 (stereo not drawn) | nt | nt | nt | -1.8% | 8%
Brc1cccc(/C=N\n2cnnc2)c1 | 1e-09 | i | i | -2.1% | 3%
O=C(Nc1ccc(Cc2ccc(NC(=O)C3CC3)c(O)c2)cc1O)C1CC1 | 1.2e-08 | i | i | -1.0% | -14%
CC(=O)c1cccc(NC(=O)c2cc(-c3ccc(F)cc3)on2)c1 | 2.7e-08 | i | i | -0.4% | 11%

Screening results as filed in PubChem.
